VDR inh – Inhibitors of the vitamin D receptor (VDR): qHTS; Vitamin D3 receptor (Homo sapiens), P11473; VDR-SRC2-3 peptide fluorescence polarization, 2 h; Potency, µM, for the others: max response, negative = inhibition, usual class: inhibitors; 0.93% of 400,000 active; AID 504847, 2011; active means well fitted inhibition curve with a large enough effect; inconclusive means small, poorly fitted or top-dose-only effect, or another doubt; inactive means no such curve, though single readings can be large or run the other way; further: series mostly up to about 120 µM
Target sequence (P11473 whole entry, looked up): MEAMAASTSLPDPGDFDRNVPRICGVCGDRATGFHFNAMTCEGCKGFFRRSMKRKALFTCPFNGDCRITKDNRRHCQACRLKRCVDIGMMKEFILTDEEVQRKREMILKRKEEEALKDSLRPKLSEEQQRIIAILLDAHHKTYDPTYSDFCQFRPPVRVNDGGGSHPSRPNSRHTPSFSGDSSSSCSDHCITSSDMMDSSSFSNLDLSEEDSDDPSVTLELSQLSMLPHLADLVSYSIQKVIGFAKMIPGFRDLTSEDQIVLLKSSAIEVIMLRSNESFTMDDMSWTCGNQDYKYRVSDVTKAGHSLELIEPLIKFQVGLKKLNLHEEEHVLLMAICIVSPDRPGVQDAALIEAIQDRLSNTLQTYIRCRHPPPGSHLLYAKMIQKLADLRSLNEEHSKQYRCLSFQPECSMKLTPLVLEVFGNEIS
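Signal is fluorescence polarization, reporting how far test compounds block the interaction of VDR with the SRC2-3 coregulator peptide after a 2 h room-temperature incubation.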
Active calls of the source: *; ? = inconclusive; & = joins results of further samples. On the % scale 0 is the no-effect control and ±100 the full control effect; potency means the concentration at half of the fitted maximal effect.

SMILES	VDR inh
CC1CCN(Cc2ccc(NC(=O)C3CCN(c4nnc(-n5cccc5)s4)CC3)cc2)CC1	-3%
COc1ccccc1N1CCN(C(=O)c2coc(=O)c(Br)c2)CC1	4%
COc1ccc(N2CCN(C(=O)CCc3c(C)nn(-c4ccc(N5CCCC5)nn4)c3C)CC2)cc1	-5%
COc1cc(/C=N/NC(=O)c2cccnc2)ccc1OS(=O)(=O)c1ccc(F)cc1	9%
O=C(O)c1cc(-c2ccc(/C=N/N3C(=O)C4C5C=CC(CC5)C4C3=O)o2)ccc1Cl (centres undefined)	-6%
CC(C)CC(C(=O)O)N1C(=O)C2C3CC(C2C1=O)C1C(c2ccccc2)c2sc(=O)[nH]c2SC31 (centres undefined)	?
COc1ccc(Oc2ccc(C(F)(F)F)cc2NC(=O)c2ccc(F)cc2)cc1	-14%
Cc1cc(NC(=O)C(C)SCC(=O)NCc2ccc(F)cc2)no1 (centres undefined)	-8%
O=S(=O)(NCCc1ccncc1)c1ccc(F)cc1	-21%
CC(C)n1c(CN2CCN(C(=O)c3ccco3)CC2)nc2c1c(=O)n(C)c(=O)n2C	-5%
CCN(CC)CCNC(=O)c1c(C)[nH]c(/C=C2\C(=O)Nc3ccc(F)cc32)c1C	3%
CCCCn1c(N)c(N(Cc2ccccc2OC)C(=O)CSCC(=O)Nc2cccc(C)c2)c(=O)[nH]c1=O	-19%
CC(C)CCN1CC(C(=O)NCc2ccccc2)CC1=O (centres undefined)	8%
COc1ccc(OC(C)C(=O)NCCC2=CCCCC2)cc1 (centres undefined)	-9%
CCN(CC)CCN(Cc1cc2cc3c(cc2[nH]c1=O)OCO3)C(=S)NCC(C)C	-14%
CCN1CCN(c2ccc(S(=O)(=O)N3CCOCC3)cc2NC(=O)/C=C/c2ccc(OC)cc2OC)CC1	-8%
COc1ccc2[nH]cc(CCNc3ncnc4ccc(-c5cccc(C#N)c5)cc34)c2c1	-1%
Nc1c(C(=O)Nc2cccc(C(=O)O)c2)sc2nc3c(cc12)CCCC3	-16%
Cc1cccc(NC(=O)CN2C(=O)N/C(=C/c3cc(C)n(C(C)C)c3C)C2=O)c1	8%
O=C(CCCN1C(=O)CCC1=O)Nc1ccc2c(c1)OCCO2	2%
O=S(=O)(Nc1ccccc1)c1ccc(NS(=O)(=O)c2c(F)cccc2F)cc1	-12%
O=C(c1cnc2sccn2c1=O)N(Cc1ccccc1)c1ccccn1	-17%
NC(=O)C1c2ccccc2CCc2ccccc21	-1%
Cc1nn(C)c(NC(=O)c2ccc(Cl)cc2Cl)c1Br	-4%
COc1ccc(CCNC(=O)CSc2nc(=O)[nH]c3c2CCC3)cc1OC	6%
COc1cc(C(=O)OCC(=O)NC2CCCC2)cc(OC)c1OC	3%
CC(=O)Oc1c(S(=O)(=O)c2ccc(C)cc2)c(C)nn1-c1ccccc1	1%
O=C(COC(=O)c1ccccc1O)NCc1ccc2c(c1)OCO2	4%
CCOc1ccc(NS(=O)(=O)c2ccc(C(=O)NCC(c3ccco3)N3CCCC3)cc2)cc1 (centres undefined)	7%
Cc1cc(C)c(C)c(OCC(=O)O/N=C(\N)c2ccccn2)c1	-3%
CCOC(=O)c1c[nH]c2c(C)cc(C)cc2c1=O	7%
Cc1cccc(C(=O)Nc2ccccc2C(=O)OCC(=O)Nc2ccc(C#N)cc2)c1	-19%
O=C(COc1ccccc1)Nc1nc2cc3c(cc2s1)OCCO3	-3%
O=C(O)c1cccc(S(=O)(=O)NNc2ccccc2C(F)(F)F)c1	?
CCOc1ccc(-c2nc(C#N)c(N3CCN(Cc4ccccc4)CC3)o2)cc1	-12%
Cc1cc(C)cc(NC(=O)CCc2ccc(C)o2)c1	-24%
O=C(Nc1ccc2c(c1)OCCO2)C1CCN(C(=O)c2ccc(Br)cc2)CC1	-2%
CNc1cc(CS(=O)c2ccccc2)nc(-c2ccccc2)n1 (centres undefined)	-7%
COc1cc(C(=O)OCC(=O)c2cc(C)n(C)c2C)cc(NC(=O)c2ccco2)c1OC	7%
Cc1sc(-c2cc3ccccc3oc2=O)nc1-c1ccc(Cl)c(Cl)c1	-1%
Cc1cccc(OCCCn2c(=O)sc3ccccc32)c1	-21%
Cn1c(/C(C#N)=C(\O)c2ccccc2Cl)nc2ccccc21	-16%
CCN(CC)S(=O)(=O)c1cc(OCC(N)=O)c(C)cc1Cl	-8%
Cc1cccc(-c2c3c(=O)n(C)c(=O)n(C)c3cn2-c2cc(N)c(Cl)cc2Cl)c1	23%
Cc1ccccc1Oc1nc2ccccn2c(=O)c1/C=C(\C#N)c1nc2ccccc2[nH]1	-14%
CCCC(=O)Oc1ccc(N(C(=O)CCC)S(=O)(=O)c2cccs2)cc1	10%
CCC1CCCCN1CCCNC(=O)Cn1c2ccccc2c2nc(=O)cc(C)n21 (centres undefined)	1%
CCc1nn(CC(=O)NCCCN2CCc3ccccc3C2)c(=O)c2cc3sccc3n12	-3%
NC(=S)c1cc2cc(Cl)ccc2oc1=O	?
Cc1nn(-c2ccccc2)c(C)c1C(=O)OC(C)C(=O)NC1CCCCC1 (centres undefined)	0%
COCCNC(=O)C(c1ccc(Cl)cc1)N(CCOC)C(=O)CCC(=O)Nc1ccccn1 (centres undefined)	14%
C[C@H]1CN([C@@H](C)CO)C(=O)Cc2cc(NS(=O)(=O)c3cccs3)ccc2O[C@H]1CN(C)S(=O)(=O)c1cn(C)cn1	-16%
Cc1cccc(NCc2nnc(-c3ccccc3)o2)c1C	-19%
CCOC(=O)c1sc(NC(=O)c2ccc3ncsc3c2)nc1C	-13%
COc1ccc(Cl)cc1NC(=O)c1ccc2c(c1)CCCN2S(C)(=O)=O	17%
COc1ccc(OC)c(CNC(=O)CSc2c3c(nc4cc(Cl)ccc24)CCCC3)c1	-30%
Cc1ccc(S(=O)(=O)Nc2ccc(Cl)cc2C(=O)c2ccc(F)cc2)cc1	-16%
COc1ccc(Cl)cc1NC(=O)CN(C)Cc1ccc(OC)c(OC)c1	-11%
CC(c1ccccc1)C(OC(=O)c1cccc([N+](=O)[O-])c1C(=O)O)c1ccccc1 (centres undefined)	-2%
Cc1ccc(C(=O)Nc2cc(-c3nc4cc(Cl)ccc4o3)ccc2C)c(C)c1	-10%

Compounds from the list above that contain a CF3 group, in the order listed:
SMILES	VDR inh
COc1ccc(Oc2ccc(C(F)(F)F)cc2NC(=O)c2ccc(F)cc2)cc1	-14%
O=C(O)c1cccc(S(=O)(=O)NNc2ccccc2C(F)(F)F)c1	?

The list goes on.
SMILES	VDR inh
Cn1c(=O)[nH]c(=O)c2c1nc(N1CCNCC1)n2Cc1ccccc1Cl	-12%
COc1ccc(-c2cn3c(n2)sc2cc(C(=O)Nc4c(C)cccc4C)ccc23)cc1	6%
Cc1cccc(CCNC(=O)Cc2ccc(NC3=NC4CS(=O)(=O)CC4S3)cc2)c1 (centres undefined)	8%
COC(=O)CNC(=O)c1cccc(F)c1	3%
O=C(N/N=C/c1cnc(N2CCCCC2)s1)c1ccc(Cl)cc1	-6%
CC1Cc2nc(SCC(=O)Nc3ccccc3F)n(C)c(=O)c2S1 (centres undefined)	9%
COCC(=O)Oc1c(S(=O)(=O)c2ccc(C)cc2)c(C)nn1-c1ccccc1	-2%
O=C(COC(=O)C1=COCCO1)Nc1ccc(OC(F)F)cc1	-12%
Cc1ccsc1/C=C(/C#N)C(=O)NCc1ccccc1	-20%
Cc1cc(C)c(C)c(S(=O)(=O)N2CCN(C(=O)CCC(=O)N3CCOCC3)CC2)c1C	-20%
CCOC(=O)c1c(NC(=O)c2cc3ccccc3c(=O)o2)sc2c1CCC(C)C2 (centres undefined)	-3%
O=C(Nc1cccc(Cl)c1)c1nc[nH]c1C(=O)N1CCN(c2ccccc2)CC1	-11%
O=C(CC(c1ccccc1)c1ccccc1)OCn1nnc2ccccc2c1=O	-10%
CN(C)S(=O)(=O)c1ccc(Cl)c(NC(=O)COC(=O)CC(NC(N)=O)c2ccc(Cl)cc2)c1 (centres undefined)	-5%
CCOc1ccc(C2c3[nH]c4ccccc4c3CCN2C(=O)CCc2ccccc2)cc1 (centres undefined)	13%
CC12CN3CC(C)(CN(C1)C3c1ccc(Br)cc1)C2=O (centres undefined)	6%
Cc1ccc(C(=O)N(CCC2=CCCCC2)c2c(N)n(Cc3ccccc3)c(=O)[nH]c2=O)o1	-7%
O=C(NCCc1ccc2c(c1)OCCO2)c1ccccn1	7%
CS(=O)(=O)Nc1ccccc1C(=O)OCC(=O)N1CCC(c2ccccc2)=N1	-5%
O=C(CSc1ccccc1)N1CCCC(N2CCN(c3ccc(F)cc3)CC2)C1 (centres undefined)	4%

In another format: entries from further up.
smiles: O=C(NCCc1ccc2c(c1)OCCO2)c1ccccn1
- VDR inh: 7%
smiles: CS(=O)(=O)Nc1ccccc1C(=O)OCC(=O)N1CCC(c2ccccc2)=N1
- VDR inh: -5%
smiles: O=C(CSc1ccccc1)N1CCCC(N2CCN(c3ccc(F)cc3)CC2)C1 (centres undefined)
- VDR inh: 4%

Arranged by the number under VDR inh (largest number first): 3 of the compounds above
SMILES | VDR inh
CCOc1ccc(C2c3[nH]c4ccccc4c3CCN2C(=O)CCc2ccccc2)cc1 (centres undefined) | 13%
O=C(CSc1ccccc1)N1CCCC(N2CCN(c3ccc(F)cc3)CC2)C1 (centres undefined) | 4%
CCOC(=O)c1c(NC(=O)c2cc3ccccc3c(=O)o2)sc2c1CCC(C)C2 (centres undefined) | -3%

The results go on:
SMILES	VDR inh
O=C(NCC1CCCO1)C1CC(c2ccc(Cl)c(Cl)c2)=NO1 (centres undefined)	-2%
COc1ccc(CCNC(=O)CCn2c(=O)c3ccccc3n(Cc3ccc(Cl)cc3)c2=O)cc1OC	5%
CN1C(=O)/C(=C\c2ccco2)N=C1c1ccc(Cl)cc1Cl	3%
COc1ccc(NC(=O)NCCCN2CCC(Cc3ccccc3)CC2)cc1	-15%
CC1(N2CCCCC2)C(=O)c2ccccc2C1=O	6%
O=C(N/N=C/c1cccc2nccnc12)c1ccncc1	-1%
COc1ccc(Cl)cc1NC(=S)N1CCN(c2ccccn2)CC1	-4%
CC(C)Cn1cnc2c(SCc3ccccc3Cl)nc(N)nc21	2%
CCOC(=O)c1c(C2CC2)csc1NC(=O)COC(=O)c1ccc[n+]([O-])c1	-20%
O=C(NC1CCCCC1)c1ccccc1C(F)(F)F	18%
CC(CC(=O)NCc1ccc(Cl)cc1Cl)CC1=NS(=O)(=O)c2ccccc2N1 (centres undefined)	-3%
CC(C)C1N=C2c3ccccc3N=C(SCC(=O)NCc3ccccc3Cl)N2C1=O (centres undefined)	-4%
CC(=O)c1ccc(NC(=O)C(C)OC(=O)C2CCN(c3ccc(C(F)(F)F)cn3)CC2)cc1 (centres undefined)	-12%
CCC1CCCCN1CCCNC(=O)c1cn(C)c2ccc(S(=O)(=O)N(C)C3CCCCC3)cc2c1=O (centres undefined)	-15%&-4%
COc1cc(/C=C2\SC(=O)N(c3ccc(O)cc3)C2=O)cc(OC)c1OC	-6%
Cn1cccc1C(=O)NC(=O)COC(=O)CNC(=O)CNC(=O)c1ccc(Cl)cc1Cl	2%
CC1=C(c2ccc(C)c(C)c2)S(=O)(=O)N=C1N1CCC(C(=O)NCc2ccc(Cl)cc2)CC1	-5%
NCCCCC(N)c1cn([C@@H](CCC(=O)O)C(=O)N2CCNCC2)nn1 (some centres undefined)	-14%
CN(CCCOc1ccccc1F)Cc1ccccc1	-26%
CCN1CCN(c2nnc(-c3ccccc3)c3ccccc23)CC1	18%
Cc1ccc(CNC(=O)CSc2ncc(S(=O)(=O)c3ccc(C)c(Cl)c3)c(=O)[nH]2)cc1	9%
COc1ccccc1CNC(=O)Cn1c(=O)oc2cc(S(=O)(=O)N3CCCC3)ccc21	-21%&-7%
CC1(c2ccccc2)NC(=O)N(CC(=O)N2CCN(S(=O)(=O)c3cccc(C(F)(F)F)c3)CC2)C1=O (centres undefined)	5%
COc1ccccc1CC(=O)NNC(=O)c1ccc(C(C)(C)C)cc1	-4%
CCOc1ccc(C(=O)COC(=O)Cc2n[nH]c(=O)c3ccccc23)cc1	-4%
CNc1nc(OCC(F)(F)F)nc(OCC(F)(F)F)n1	-5%
O=C(O)c1cc(S(=O)(=O)N2CCN(C(=O)c3ccco3)CC2)c(Cl)cc1Cl	-22%
[O-][n+]1c2c(nn1-c1ccccc1Cl)-c1nonc1CC2	-11%
Cc1cnc(C(=O)OC(C(=O)Nc2cc(C(F)(F)F)ccc2Cl)c2ccccc2)cn1 (centres undefined)	2%
Cc1cc(C)cc(C(=O)NCCn2cc(SCC(=O)N3CCOCC3)c3ccccc32)c1	-1%
CCc1ccc2nc(N3CCN(C(=O)C4CC4)CC3)sc2c1	7%
COc1cccc(C2CC(c3ccc(C)cc3)n3ncnc3N2)c1 (centres undefined)	4%
O=C(CCCC(=O)N(CC(=O)NC1CCCC1)Cc1ccc2c(c1)OCO2)Nc1ccccn1	9%
Cc1ccccc1Nc1nc(N)nc(CSc2nnc(-c3ccccc3)n2C)n1	-1%
C[C@@H]1CN([C@H](C)CO)C(=O)Cc2cc(NS(=O)(=O)c3cn(C)cn3)ccc2O[C@H]1CN(C)S(=O)(=O)c1ccc(Cl)cc1	-2%
CCOC(=O)C1CCN(C(=O)Nc2ccc3nccnc3c2)CC1	-12%
O=C(c1ccco1)N1N=C(c2ccc(Br)cc2)CC1(O)C(F)(F)F (centres undefined)	0%
O=S(=O)(c1cccc2c(I)cccc12)N1CCCNCC1	-29%
CCC(C)c1ccccc1OCCn1ccnc1 (centres undefined)	1%

Ordered by count of non-hydrogen atoms (high to low): part of the list above.
SMILES	VDR inh
CCOc1ccc(C(=O)COC(=O)Cc2n[nH]c(=O)c3ccccc23)cc1	-4%
COc1cccc(C2CC(c3ccc(C)cc3)n3ncnc3N2)c1 (centres undefined)	4%
[O-][n+]1c2c(nn1-c1ccccc1Cl)-c1nonc1CC2	-11%

Assay outcomes deposited in PubChem BioAssay by National Center for Advancing Translational Sciences (NCATS).

Not all compounds are listed. The share of hits here may be higher or lower than overall.
